# Bioassay records as filed in PubChem BioAssay.
# NPYLR7 agonist: mosquito NPYLR7 agonism | actives 0.15% (n = 270,000) | HEK293T NPYLR7/Galpha15, GCaMP6s calcium fluorescence | activation, % at 10 µM; in the data active means activation above about 40%;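 further: 0% = vehicle and 100% = reference agonist at the receptor; some compounds past the cut are filed as inactive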
# NPYLR7 agonist max-min: second read-out of NPYLR7 agonist, no call of its own (marks repeat the call); activation, %; measured here: Max-Min RFU normalised activation; some inactives read as strong as hits;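 span of the calcium signal over five minutes; 0% = vehicle and 100% = native peptide agonist; compound fluorescence can raise it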
# An asterisk follows results filed as active; & = joins results of further samples. A portion of the library (hit frequency here may not be typical).
SMILES,NPYLR7 agonist,NPYLR7 agonist max-min
O=C(Nc1ccc(O)c(-c2nc3ccccc3o2)c1)c1ccc([N+](=O)[O-])cc1,-3.0,-9.0
CNC(=O)CN(C)c1nnc(-c2ccccc2)s1,1.7,-0.1
CC1CC(=NNC(=O)Cc2cn3ccsc3n2)CC(C)(C)C1 (stereo not drawn),0.5,21.9
C/C=C/C=C/C(=O)NCc1ccc(NC(=O)NC(C)C)cc1,-3.9,-11.8
O=C(Cc1cccs1)N1CCC(c2nc(-c3ccccc3Cl)no2)CC1,8.3,20.4
C=CCONC(=O)Cc1cnn(-c2ccccc2)c1C,0.7,-0.9
CC1CCc2c(sc3nnn(CC(N)=O)c(=O)c23)C1 (stereo not drawn),1.2,-3.4
CCN1C(=O)c2cc(Cl)ccc2NC1c1nc[nH]c1C (stereo not drawn),9.7,7.2
O=C(NCc1ccc(-c2ncc(-c3ccc(F)cc3)[nH]2)cc1)C1=Cc2cc(Cl)ccc2OC1,29.0,35.1
O=C(Nc1ccccc1C(F)(F)F)c1cccn(OCc2ccc(F)cc2)c1=O,3.9,3.6

# Sorted by heavy-atom count (smallest number first): part of the list above.
SMILES,NPYLR7 agonist,NPYLR7 agonist max-min
CC1CC(=NNC(=O)Cc2cn3ccsc3n2)CC(C)(C)C1 (stereo not drawn),0.5,21.9
O=C(Nc1ccc(O)c(-c2nc3ccccc3o2)c1)c1ccc([N+](=O)[O-])cc1,-3.0,-9.0
O=C(Nc1ccccc1C(F)(F)F)c1cccn(OCc2ccc(F)cc2)c1=O,3.9,3.6

# Following part.
SMILES,NPYLR7 agonist,NPYLR7 agonist max-min
COc1cccc(-c2cc(C(=O)NCCC(C)C)c(C)n2-c2ccc(F)cc2)c1,4.2,6.7
O=c1n(CCNc2cc3c(cc2Cl)OCCO3)nc2ccccn12,5.3,5.9
Cc1nc(CN(C)C(=O)C2CCC(=O)N(CCc3ccccn3)C2)cs1 (stereo not drawn),10.7,1.8
O=C(c1ccc2c(c1)OCCO2)N(Cc1cccnc1)c1nc2c(F)cccc2s1,-14.0,-14.8
COc1ccc(-n2c(CN)n[nH]c2=O)cc1Cl,0.1,2.9
Cc1cc(C2CCC2)nc(N(C)Cc2cccnc2)n1,3.1,1.3
O=C(NCCn1nc(-c2cccs2)ccc1=O)Nc1ccc(C(F)(F)F)cc1,-1.4,-1.6
COc1ccc(NC(=O)c2cc(C(C)C)nc3c2c(=O)[nH]c(=O)n3CC(C)C)cn1,10.9,7.0
CCOc1cccc(CN(CCO)C(=O)c2n[nH]c3c2CC(C)CC3)c1 (stereo not drawn),-1.3,-4.3
O=c1nc(SCc2cccc3ccccc23)c2c(n1CC1CCCO1)CCC2 (stereo not drawn),-3.4,-8.5

# Entries of single compounds as entered above:
# Listed for O=c1nc(SCc2cccc3ccccc23)c2c(n1CC1CCCO1)CCC2 (stereo not drawn) : NPYLR7 agonist = -3.4; NPYLR7 agonist max-min = -8.5
# Listed for COc1ccc(-n2c(CN)n[nH]c2=O)cc1Cl : NPYLR7 agonist = 0.1; NPYLR7 agonist max-min = 2.9

# Reformatted with values under each structure: part of the list above.
# Fields: NPYLR7 agonist | NPYLR7 agonist max-min
O=C(c1ccc2c(c1)OCCO2)N(Cc1cccnc1)c1nc2c(F)cccc2s1
→ -14.0 | -14.8
COc1ccc(-n2c(CN)n[nH]c2=O)cc1Cl
→ 0.1 | 2.9

# Following part:
SMILES,NPYLR7 agonist,NPYLR7 agonist max-min
O=C(Nc1nnc(C2CC2)s1)Nc1ccc(F)cc1F,-2.0,-5.5
CC(C)N(Cc1cccc(Cl)c1)S(=O)(=O)c1cc(C(N)=O)n(C)c1,4.6,2.2
Cn1ccsc1=NC(=O)c1cc(F)cc(F)c1,0.0,-5.5
Cc1cccc(NC(=O)CSc2nc(=O)n3cc(Cl)ccc3n2)c1C,9.2,6.2
CN1CCN(Cc2cccn2-c2ncccn2)CC1CCO (stereo not drawn),8.2,3.7
COC(=O)[C@H]1C[C@@H](O)CCN1C(=O)c1cc(-c2ccccc2)on1,15.0,5.9
COc1ccccc1NS(=O)(=O)c1cc(C(=O)Nc2ccccc2)ccc1Cl,-12.1,-16.7
C=CCn1c(=NC(=O)c2ccccc2S(C)(=O)=O)sc2cccc(F)c21,11.1,8.8
COc1ccc(CC(=O)Nc2c(C)nc3c(C)cccn3c2=O)cc1OC,3.2,0.7
OC1(CNc2cc(-c3ccccc3)nc3ncnn23)CCSCC1,1.0,-0.7
C/C=C(\CC)CN1CCC(CNC(=O)c2cccc(N)c2)C1 (stereo not drawn),-0.5,-1.0
CCNC(=O)N(Cc1cc(NC(=O)CC)ccc1N(C)C)C(C)c1ccccc1 (stereo not drawn),10.6,9.7
O=C(NCCOc1ccccc1)C1CC=CCC1C(=O)N1CCN(c2ccccn2)CC1 (stereo not drawn),-4.3,-1.5
O=C(C1=CCCC1)N(CCN1CCCCC1)CC1CCCN(C2CCCC2)C1 (stereo not drawn),0.5&9.4,-0.3&9.3
CC(C)CCN1CC2=C(C1=O)C(c1ccc(OCc3ccccc3)cc1)NC(=O)N2 (stereo not drawn),0.9,-0.5
O=C(c1cc(F)c(Cl)cc1Cl)N(CC1CCCO1)CC1CCCO1 (stereo not drawn),8.7,5.9
CC(C)CC(=O)C(=O)N1CCCC(CNC(=O)C2(c3ccc(Cl)cc3)CC2)C1 (stereo not drawn),5.3,2.8
Cc1occc1C(=O)NNC(=O)C1CCCC1,3.4,1.2
CCCCSc1nnc2c(n1)OC(c1cc(Br)cc(Br)c1OC)Nc1ccccc1-2 (stereo not drawn),23.4,30.7
CC1=C(C(=O)OC(C)C)C(c2cccc(Br)c2)C2=C(CCCC2=O)N1 (stereo not drawn),0.1,-1.9
Cc1cc(C)c(OCC(=O)Nc2nnc(C3CC3)s2)c(C)c1,-5.0,-8.4
C=CCN(CC(=O)N(CCc1ccc(OC)c(OC)c1)Cc1ccc(C)o1)C(=O)CCc1ccccc1,-3.2,1.2
O=C1C(=Cc2ccccn2)SC(=S)N1CCCN1CCOCC1,9.5,18.0
Cc1cn2c3c(=O)n(Cc4c(F)cccc4Cl)c(=O)n(C)c3nc2n1CC1CCCO1 (stereo not drawn),-1.7,6.1
CCOC(=O)[C@@H]1CCCC[C@@H]1NC(=O)C1CC=CCC1C(=O)N1CCc2ccccc2C1 (stereo partly drawn),-10.8,-14.7
Cc1onc(-c2ccccc2Cl)c1C(=O)NCCc1nc2ccccc2[nH]1,-12.7,-18.0
COC(=O)c1c(C)[nH]c(C(=O)C(C)OC(=O)CC2CCCC2)c1C (stereo not drawn),0.2,-0.8
CC(C)(CCl)C(=O)Nc1c(-c2ccc(Cl)cc2)nc2ccccn12,-1.3,0.3
CCc1ccc(S(=O)(=O)NCC2CN(c3ccc(Cl)c(Cl)c3)C(=O)O2)s1 (stereo not drawn),13.7,11.6
N#Cc1nc(NC2CCCOC2)ccc1Cl (stereo not drawn),-7.0,-7.0

# Pulled by compound from above:
SMILES,NPYLR7 agonist,NPYLR7 agonist max-min
O=C(c1ccc2c(c1)OCCO2)N(Cc1cccnc1)c1nc2c(F)cccc2s1,-14.0,-14.8
C=CCN(CC(=O)N(CCc1ccc(OC)c(OC)c1)Cc1ccc(C)o1)C(=O)CCc1ccccc1,-3.2,1.2
O=C(NCCOc1ccccc1)C1CC=CCC1C(=O)N1CCN(c2ccccn2)CC1 (stereo not drawn),-4.3,-1.5
N#Cc1nc(NC2CCCOC2)ccc1Cl (stereo not drawn),-7.0,-7.0

# Next structures follow.
SMILES,NPYLR7 agonist,NPYLR7 agonist max-min
COC(=O)c1ccc(N=Cc2nc(-c3ccccc3)oc2O)cc1,7.2,3.1
CC(=O)N1CCN(C(=O)c2nn(-c3ccc(Cl)cc3)c(=O)n(Cc3ccccc3F)c2=O)CC1,17.9,14.6
O=C(CSc1nc(=O)n(CCN2CCOCC2)c2c1CCC2)Nc1cccc(C(F)(F)F)c1,12.1,8.3
CC(C)N1C2CCC1CN(C(=O)NCc1cc(C#N)ccc1F)CC2 (stereo not drawn),5.2,3.5
CNC(=O)[C@@H]1[C@@H](OC)C(=O)N(C)C12CCN(C(=O)COc1ccccc1)CC2,-0.6,12.4
COCCCNc1nc2nonc2nc1N1CCCN(C2Cc3ccccc3C2)CC1,3.6,-2.2
O=C(CSc1nc2ccsc2c(=O)n1-c1ccccc1)N1CCOCC1,10.3,6.4
Cc1nc2nc3ccn(-n4c(C)nnc4C)c(=O)c3c(-c3ccccc3)n2n1,14.3,14.0
Cc1ccccc1NC(=O)/C=C1/c2ccccc2CC(C)(C)N1C,-0.6,-1.1
O=S(=O)(c1ccccc1)N1CCOC(CCc2ccccc2)C1 (stereo not drawn),5.1,3.9
CN(C)c1cc(C(=O)N2CCN(CCNC(=O)c3ccccc3F)CC2)ccn1,1.1,4.4
CC(Cl)C(=O)NCC1CCN(c2nc(Cc3ccc(Cl)cc3)ns2)CC1 (stereo not drawn),17.6,21.7
CSc1cccc(NC(=O)CN2C(=O)NC(C)(c3ccco3)C2=O)c1 (stereo not drawn),7.8,4.3
Cc1nc2n(n1)C(=O)C(C(c1ccc(C(C)C)cc1)N1CCC3(CC1)OCCO3)S2 (stereo not drawn),1.6,-2.4
COc1ccc(C(=O)N2CCSC23CCN(C(=O)c2ccccc2OC)CC3)cc1,0.0,11.3
CN(CC(=O)Nc1ccc(Cl)c(Cl)c1)C(=O)c1ccc(N2C(=O)CCC2=O)cc1,-0.2,-3.5
O=C(NC1CCC(NC(=O)[C@H]2CCCN2C(=O)C(c2ccccc2)c2ccccc2)CC1)c1ccccc1 (stereo partly drawn),19.6,26.2
Cn1c(-c2cccs2)nn(CCNC(=O)/C=C/c2ccccc2)c1=O,8.6,5.0
Cc1nc(-c2cccc(F)c2)nc(N2CCN(C(=O)Nc3ccc(C(F)(F)F)cc3)CC2)c1Cc1ccccc1,-1.3,3.0
Cc1ccc2[nH]c(CN3CCCC3c3cc(C(C)C)on3)nc2c1C (stereo not drawn),12.5,24.1
COc1cccc(CN(C)c2cncc3nncn23)c1,10.3,7.1
CCCCCCNC(=O)c1ccc(N2CCCC2c2ccccc2)nc1 (stereo not drawn),6.3,5.0
CC(O)C(=O)N1CCC(c2[nH]ncc2Cc2ccccc2)CC1 (stereo not drawn),-6.2,-9.1
O=C(CNc1cccc(C(F)(F)F)c1)Nc1cccc2ccccc12,-11.8,-12.2
O=S(=O)(NCCSC1CCCC1)c1ccccc1Cl,-1.6,-2.5
CCOC(=O)c1nsc(C(=O)OCC)c1N,0.5,0.4
Cc1nc2scc(C)n2c(=O)c1NC(=O)c1ccc(Cl)cc1,8.4,-0.4
Cc1nn(C(C)C)c(C)c1CN(C)C(=O)c1ccc(CSc2ncccn2)o1,-2.1,5.3
COc1ccc(-c2csc(-n3[nH]c(C)c(N=Nc4cc([N+](=O)[O-])ccc4OC)c3=O)n2)cc1,-7.5,-11.6
COC(C)(C(=O)N1CCC(C(=O)NC(C)C)CC1)c1ccccc1 (stereo not drawn),15.7,8.6
COc1cc(-c2cc(C(F)(F)F)n3ncc(C(=O)NCc4ccco4)c3n2)cc(OC)c1OC,13.4,13.6
Cc1ccc(C)c(OC2CCN(CCn3cnc4ccccc4c3=O)CC2)c1,2.5,-3.3
CCNC(=O)OC1CN(C(=O)Nc2ccccc2)CCC(=O)N(C)c2ccccc21 (stereo not drawn),2.6,5.9
O=C(Nc1ccccc1C(F)(F)F)N1CCCCC1CCn1ccnc1 (stereo not drawn),0.5,-7.7
O=C1CSC(c2cccnc2)N1Cc1ccccc1 (stereo not drawn),-9.9,-13.2
COC(=O)C1=C(C(=O)OC)SC(=C2C(=S)C(C)(C)N(C(=O)C3CC3)c3ccc(C)cc32)S1,5.1,4.9
O=C(COc1ccccc1)NCc1nnc(SCC(=O)N2CCc3ccccc32)n1-c1cccc(C(F)(F)F)c1,-10.3,-7.0
COc1ccc(Cl)c2sc(N3CCN(C(=O)c4ccco4)CC3)nc12,-0.4,-2.1
CCN1C(=O)NC(c2ccc(Cl)cc2Cl)C2=C1CN(CC(=O)Nc1ccccc1Cc1ccccc1)C2=O (stereo not drawn),-3.0,3.4
Fc1cccc(Cl)c1CNCCNc1ccccc1,1.2,-2.1
CCOC(=O)NN1CC(=O)C(c2n(C)c3ccccc3[n+]2C)C1=N (stereo not drawn),8.9,12.4
C=CCCC(O)CN(Cc1ccc(C)s1)C1CC1 (stereo not drawn),3.7,9.3
Cc1nc(NCCNC(=O)c2cccc3ccccc23)cc(-n2cccn2)n1,29.0,32.3
Cc1ccc(C(=O)On2nnc3ccccc32)cc1,2.3,8.5
CCC1CN(C(=O)c2cnc(C)cn2)CCC(=O)N1Cc1ccccc1 (stereo not drawn),5.1,-3.3
Cc1nc(CC(=O)N(Cc2cccnc2)Cc2cccnc2)cs1,8.9,5.2
S=C(NC1CCCCC1)NC12CC3CC(CC(C3)C1)C2,7.4,3.9
CC#CCN1C(=O)C(CCC(=O)NCCc2c(C)[nH]c3ccccc23)NC(=O)c2ccccc21 (stereo not drawn),1.7,1.5
Cc1nn(C)c(C)c1C(C)NC(=O)NOCc1ccccc1 (stereo not drawn),18.6,10.2
CC(C)Cc1nc(CC2C=CS(=O)(=O)C2)n(-c2ccc3c(c2)OCO3)n1 (stereo not drawn),20.8,10.9

# Next part
SMILES,NPYLR7 agonist,NPYLR7 agonist max-min
CC(C)N(CC(=O)N(Cc1ccco1)Cc1cccn1C)C(=O)Nc1cccc(F)c1,-11.7,-7.2
CC(NC(=O)C1CSC2(C)CSCC(=O)N12)c1ccc(Cl)cc1 (stereo not drawn),8.4,6.0
Fc1ccc(F)c(-c2cn3nc(C45CC6CC(CC(C6)C4)C5)sc3n2)c1,5.2,0.6
Cc1cc([N+](=O)[O-])ccc1NP1(=O)C(=C2N(C)c3ccccc3C2(C)C)C=NN1c1ccccc1 (stereo not drawn),5.6,4.9
O=C(c1ccc(NCc2ccccc2F)cc1)N1CCCC1,0.2,-2.2
COc1cc(S(=O)(=O)NCCCN2CCOCC2)ccc1Cl,-3.8,-5.6
O=C(Nc1ccc(F)cc1)C1CC(=O)N(c2ccccc2F)C1 (stereo not drawn),1.1,-2.2
COc1cc(=O)n(-c2ccc(C)cc2)nc1C(=O)Nc1ccc(C)cc1C,3.6,-0.1
